Screens (PubChem)
OX1R FRET antag: antagonists of human orexin 1 receptor (OX1R); Orexin/Hypocretin receptor type 1 (Homo sapiens), O43613; OX1R-expressing cells, FRET antagonist read-out; inhibition, % at 6.6 µM; actives 1.8% (n = 330,000); in the data active means inhibition mostly above about 38%, no sharp cut-off; inactive means mostly below about 40%;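 further: 0% = agonist challenge alone and 100% = reference antagonist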
Target sequence (O43613 whole entry, looked up): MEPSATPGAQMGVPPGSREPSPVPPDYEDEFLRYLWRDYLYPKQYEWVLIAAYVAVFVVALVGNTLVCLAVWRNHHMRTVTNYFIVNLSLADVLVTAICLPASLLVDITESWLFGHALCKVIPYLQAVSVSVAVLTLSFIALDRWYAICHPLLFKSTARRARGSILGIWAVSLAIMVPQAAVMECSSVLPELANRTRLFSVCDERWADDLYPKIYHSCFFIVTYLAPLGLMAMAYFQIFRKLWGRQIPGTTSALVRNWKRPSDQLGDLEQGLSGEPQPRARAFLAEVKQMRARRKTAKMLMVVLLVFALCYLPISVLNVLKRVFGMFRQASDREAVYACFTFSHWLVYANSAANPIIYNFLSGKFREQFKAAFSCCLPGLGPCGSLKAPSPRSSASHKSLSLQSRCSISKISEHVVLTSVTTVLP
Active calls of the source: *. Only part of the results is shown, and most or all hits are left out here.

For COc1ccc(CN2CCCCC2c2cccnc2)c(OC)c1C (stereo not drawn) the results were OX1R FRET antag 15.
Cc1cccc(NC(=O)c2ccccc2[N+](=O)[O-])n1 was read as OX1R FRET antag 16.
Screening CCCCCCC(C)n1[nH]c(=O)c2c(C)cc(C)nc21 (stereo not drawn) returned OX1R FRET antag 10.
Screening O=C(Cc1ncc(C(F)(F)F)cc1Cl)NCc1ccco1 returned OX1R FRET antag -6.
COCc1cc(C)nc(SCC(=O)Nc2ccc3c(c2)OCO3)c1C#N was read as OX1R FRET antag 19.
Cc1c(C(=O)c2ccc(F)cc2F)c2ccccn2c1CCC#N was read as OX1R FRET antag 24.
For COCCn1c(=S)[nH]c2cc(C(=O)NCCc3ccccc3)ccc2c1=O the results were OX1R FRET antag 15.
`CCN(CC(=O)Nc1ccc(NC(C)=O)cc1)C(=O)Cc1coc2cc(C)c(C)cc12` gave OX1R FRET antag 9.
`C[C@H]1CN=C(Nc2ccccc2)N1CC1CCCCCC1` gave OX1R FRET antag 30.
Cc1nc(C)c(C(=O)OCC(=O)Nc2ccccc2)s1 was read as OX1R FRET antag 7.
`CN(C(=O)COC(=O)C1CSC2(C)CCC(=O)N12)c1ccccc1` (stereo not drawn) gave OX1R FRET antag 14.
Screening O=C(Nc1ccc2oc(-c3ccccc3F)nc2c1)c1ncn[nH]1 returned OX1R FRET antag 16.
Screening O=c1c2ccccc2nc(SCc2ccc([N+](=O)[O-])cc2)n1-c1ccc(Cl)cc1 returned OX1R FRET antag 27.
COc1cc(OC)c(C(=O)NC2CCCc3ccccc32)cc1OC (stereo not drawn) was read as OX1R FRET antag 43.
For COCC1CCN(Cc2nc(Cc3ccccc3Cl)no2)CC1 the results were OX1R FRET antag 9.
`N#Cc1c2n(c3c(=O)n(Cc4ccccc4)cnc13)CCCC2` gave OX1R FRET antag 3.
For COc1ccc(CNC(=O)CN(Cc2ccc(OC)cc2)C(=O)CCC(=O)Nc2ccccn2)cc1 the results were OX1R FRET antag 20.
For Cc1ccc(NC(=O)CSc2ccc(-c3ccc(-n4cccn4)cc3)nn2)c(C)c1 the results were OX1R FRET antag 12.
`CCc1nn(CC(=O)NCCCN(Cc2ccccc2)C(C)C)c(=O)c2cc3sccc3n12` gave OX1R FRET antag 14.
CCc1c(C)nc2cc(-c3ccc(OC)cc3)[nH]n2c1=O was read as OX1R FRET antag 10.
`CSCC(O)Cn1ncc2ccccc2c1=O` (stereo not drawn) gave OX1R FRET antag 4.
`CCCc1cc(C(=O)Nc2sc(C)c(CC)c2C#N)no1` gave OX1R FRET antag 7.
COc1cc(OC)cc(C(=O)NCC(=O)OCc2csc(-c3ccccc3)n2)c1 was read as OX1R FRET antag 17.
Cc1cc(C)cc(Oc2ccccc2/C=N\O)c1 was read as OX1R FRET antag 19.
Screening CN1CCN(C(=O)C2=C[C@@H](C3CCCCC3)C[C@@H](OCc3ccc(CO)cc3)O2)CC1 returned OX1R FRET antag 19.
`O=C(Cn1c2ccc(F)cc2c2nc3n(c(=O)c21)CCS3)NCC1CCCO1` (stereo not drawn) gave OX1R FRET antag 25.
Cc1cccc(C(=O)OCC(=O)c2ccc3c(c2)OCO3)c1O was read as OX1R FRET antag 28.
For Cc1nnc(SCC(=O)N(CC(C)C)C2CCS(=O)(=O)C2)n1N (stereo not drawn) the results were OX1R FRET antag 2.
For COC(=O)c1ccc(/C=C/C(=O)O)cc1 the results were OX1R FRET antag 29.
Cc1cccc(CCNc2nc3ccc(C)cc3n3cnnc23)c1 was read as OX1R FRET antag -6.
CC(C(=O)Nc1ccc(C#N)cc1)N(C)CC(=O)Nc1ccccc1Br (stereo not drawn) was read as OX1R FRET antag -6.
Screening COc1ccc(OC)c(/C=N\NC(=O)CC(=O)NCCc2ccccc2)c1 returned OX1R FRET antag 15.
`CS(=O)(=O)c1ccc(C(=O)N2CC(=O)Nc3ccccc32)cc1` gave OX1R FRET antag 13.
For N#Cc1c(SCc2ccccc2)sc(C(=O)c2ccccc2)c1N the results were OX1R FRET antag 12.
Screening COc1ccc(C)cc1S(=O)(=O)NC1CCCCC1C (stereo not drawn) returned OX1R FRET antag 10.
`CN(C)CCOC(c1ccc(Cl)cc1)c1ccccn1` (stereo not drawn) gave OX1R FRET antag 8.
`NC(=O)c1c(NC(=O)Cn2nc(C(=O)O)c3ccccc3c2=O)sc2c1CCCC2` gave OX1R FRET antag 16.
For CC(C)c1ccccc1OCC(=O)N1CCCCCCC1 the results were OX1R FRET antag 25.
CCN(CC)CCOC(=O)C1(C2CCCCC2)CCCCC1 was read as OX1R FRET antag 7.
`CCOC(=O)C(=O)N(CC)C1CCS(=O)(=O)C1` (stereo not drawn) gave OX1R FRET antag 7.
`CC(C)C(NC(=O)c1ccc([N+](=O)[O-])cc1Cl)C(=O)N1CCCC1` (stereo not drawn) gave OX1R FRET antag 39.
For Cc1cc(SCC(=O)N2CCCC2)nc2ccccc12 the results were OX1R FRET antag 13.
Screening O=C(O)C1CCCCN1C(=O)c1ccc(S(=O)(=O)N2CCCCCC2)cc1 (stereo not drawn) returned OX1R FRET antag 3.
`CCOC(=O)CSc1cc(CS(=O)(=O)c2ccccc2)nc(-c2ccccc2)n1` gave OX1R FRET antag 27.
`CCOC(=O)C1=C(CSc2nncn2C)NC(=O)NC1c1cc(OCC)ccc1OCC` (stereo not drawn) gave OX1R FRET antag 0.
Screening O=c1oc2cc(Br)ccc2n1CSC1=NCCS1 returned OX1R FRET antag 30.
Screening O=C(CC(=O)Nc1ccccc1)Nc1ccccc1 returned OX1R FRET antag 4.
Screening Cn1c(=O)n(C)c2cc(/C=N/N=C3/NC(=O)C(CC(=O)O)S3)ccc21 (stereo not drawn) returned OX1R FRET antag 23.
For CCCCNS(=O)(=O)c1ccc2nc(SCC(=O)c3ccccc3OC)[nH]c2c1 the results were OX1R FRET antag 15.
CC(Oc1ccc2c(c1)oc(=O)c1ccccc12)C(=O)NCCCN1CCOCC1 (stereo not drawn) was read as OX1R FRET antag 12.

A draw from above in order of length of the SMILES, falling:
Screening Cn1c(=O)n(C)c2cc(/C=N/N=C3/NC(=O)C(CC(=O)O)S3)ccc21 (stereo not drawn) returned OX1R FRET antag 23.
`CCOC(=O)CSc1cc(CS(=O)(=O)c2ccccc2)nc(-c2ccccc2)n1` gave OX1R FRET antag 27.
Screening O=C(CC(=O)Nc1ccccc1)Nc1ccccc1 returned OX1R FRET antag 4.

New compounds follow:
`O=c1cc(NS(=O)(=O)c2ccccc2)nc(SCc2ccc(Cl)cc2)[nH]1` gave OX1R FRET antag 17.
`CCCCS(=O)CC(O)COCC` (stereo not drawn) gave OX1R FRET antag 12.
Screening O=C(CSc1nc2ccccc2[nH]1)NCCN1CCCCC1 returned OX1R FRET antag 23.
For Cc1c(NC(=O)NC(=O)c2ccc(F)cc2)c(=O)n(-c2ccccc2)n1C the results were OX1R FRET antag 30.
CS(=O)(=O)N1CCC(C(=O)N2CCN(c3ccccc3)CC2)CC1 was read as OX1R FRET antag 31.
COc1ccc(/C=N/OCC(=O)NCC(C)C)c(OC)c1 was read as OX1R FRET antag 5.
C/C(=N\NC(=O)c1cnccn1)c1ccc([N+](=O)[O-])cc1 was read as OX1R FRET antag 38.
Screening O=C(COC(=O)CC(c1ccccc1)c1ccccc1)Nc1cccc(F)c1 returned OX1R FRET antag 28.
`O=C(c1ccc(S(=O)(=O)Nc2ccccc2F)cc1)N1CCCCCC1` gave OX1R FRET antag 8.
`Cc1ccc(NC(=O)C2CC(c3ccc(F)cc3)=NO2)cc1` (stereo not drawn) gave OX1R FRET antag 7.
Screening O=C1C=C(c2ccc(Cl)cc2)OC2(CCCC2)O1 returned OX1R FRET antag -3.
Screening C=CCOc1ccc(CNc2ccc(NC(=O)CCC)cc2)cc1OCC returned OX1R FRET antag 15.
Screening COc1ccc2c(c1)c1nc3ccccc3nc1n2Cc1ccc(OC(C)C)c(OC)c1 returned OX1R FRET antag 13.
For CS(=O)(=O)N(CCC#N)Cc1ccc(C=O)o1 the results were OX1R FRET antag 24.
CC(C)(C)C(=O)Nc1nc(C2CCCN2S(=O)(=O)c2ccc(Cl)cc2)cs1 (stereo not drawn) was read as OX1R FRET antag 20.
For COC(=O)C1C(=O)C(C(=O)c2ccc([N+](=O)[O-])cc2)C(=O)CC1(C)C (stereo not drawn) the results were OX1R FRET antag 20.
`CCOC(=O)c1sc(=NC(=O)/C=C/c2ccccc2)n(C)c1C` gave OX1R FRET antag 4.
COc1ccccc1-n1c(SCC(=O)O)nc2sc3c(c2c1=O)CCC3 was read as OX1R FRET antag 22.
Screening Cc1ccccc1NC(=O)N(C(C)C)C(C)C returned OX1R FRET antag 18.
For Cc1cccc2nc(CSc3ccc(Cl)cc3)cn12 the results were OX1R FRET antag 35.
`COCCSc1nc(N)c2c3c(sc2n1)CN(C)CC3` gave OX1R FRET antag 13.
`Cc1c(NC2=CC(=O)CCC2)c(=O)n(-c2ccccc2)n1C` gave OX1R FRET antag 1.
COc1ccccc1NS(=O)(=O)c1ccc(C(=O)NCC(c2ccco2)N(C)C)cc1 (stereo not drawn) was read as OX1R FRET antag 11.
Screening COc1ccc(OCCNc2cc(N3CCOCC3)ccc2[N+](=O)[O-])cc1 returned OX1R FRET antag 19.
Screening CN1C(=O)/C(=C2/C=CC=CN2C)OC1=S returned OX1R FRET antag 9.
Screening O=C1CCSc2ccc(Cl)cc2N1Cc1cccc(Cl)c1 returned OX1R FRET antag 33.
Screening Cc1ccc(S(=O)(=O)Nc2nc(C)c(C)s2)cc1 returned OX1R FRET antag 1.
Screening COc1ccc(S(=O)(=O)N2CCC3(CC2)CC(=O)c2ccccc2O3)cc1 returned OX1R FRET antag 6.
`CCn1cc(C(=O)N2CCOCC2)c(=O)c2cc(S(=O)(=O)N(C)C3CCCCC3)ccc21` gave OX1R FRET antag 8.
CC(C)C(NC(=O)c1ccc(F)cc1)C(=O)N1CCOCC1 (stereo not drawn) was read as OX1R FRET antag 8.
`Cc1cc(N2CCOCC2)nc2ccc(Cl)cc12` gave OX1R FRET antag 14.
For Cc1sc(N)c(C(=O)c2ccccc2Cl)c1C the results were OX1R FRET antag 13.
CS(=O)(=O)c1ccc(-c2nnc(NC(=O)c3cccc(N4C(=O)CCC4=O)c3)o2)cc1 was read as OX1R FRET antag 8.
For CCCCN(C(=O)c1ccc(COc2ccccc2)o1)c1c(N)n(CC(C)C)c(=O)[nH]c1=O the results were OX1R FRET antag -3.
For O=C(c1cc(COc2cccc(C(F)(F)F)c2)on1)N1CCSCC1 the results were OX1R FRET antag 10.
`CC(=O)Nc1ccc(NC(=O)COc2ccc(S(=O)(=O)N3CCCC3)cc2C)cc1` gave OX1R FRET antag 10.
For CCCC(=O)Nc1cc(-c2nnc(OC)c3ccccc23)ccc1N1CCCCC1 the results were OX1R FRET antag 5.
CSc1nc2ccc(NC(=O)c3c(F)cccc3F)cc2s1 was read as OX1R FRET antag 23.
`Cc1cc(Nc2ccc(C)c(F)c2)n2ncnc2n1` gave OX1R FRET antag 4.
For Cc1cc([N+](=O)[O-])nn1CCC(=O)NC1CCCCCC1 the results were OX1R FRET antag 16.
Cn1nc(-c2ccccc2)c(C(=O)NC(C(=O)O)c2ccccc2)c1Cl (stereo not drawn) was read as OX1R FRET antag 28.
`O=C(c1sc2cc(Cl)ccc2c1Cl)N1CCN(CCc2ccccn2)CC1` gave OX1R FRET antag 5.
`O=C(COC(=O)c1ccc(O)cc1)Nc1ccccc1[N+](=O)[O-]` gave OX1R FRET antag 19.
For COc1ccc(/C(O)=C2/C(=O)C(=O)N(CCN(C)C)C2c2ccc(C)cc2)cc1Cl (stereo not drawn) the results were OX1R FRET antag 10.
Screening COc1ccc(S(=O)(=O)N2CCN(C(=O)CNC(=O)c3ccc4c(c3)OCO4)CC2)cc1 returned OX1R FRET antag 20.
`CC(C)Oc1ccc(C(CC(=O)O)NC(=O)Cc2ccccc2)cc1` (stereo not drawn) gave OX1R FRET antag 5.
For COc1ccc(C(=O)Nc2ccc3c(c2)OCCO3)cc1[N+](=O)[O-] the results were OX1R FRET antag 21.
Screening CS(=O)(=O)N(Cc1ccc(C(=O)NCCSCc2ccco2)cc1)c1ccccc1 returned OX1R FRET antag 14.
For O=C(N/N=C/c1c(Cl)cccc1Cl)c1ccc(F)cc1 the results were OX1R FRET antag 4.
For CN(C)CC(=O)N1CCc2ccccc2C1 the results were OX1R FRET antag 3.
`Cc1cccc2cc(CN(Cc3cccs3)C(=S)NCc3ccco3)c(=O)[nH]c12` gave OX1R FRET antag 19.
For CC(C)c1cccc(C(C)C)c1OCCCCCN1CCOCC1 the results were OX1R FRET antag 1.
`CSc1ncccc1C(=O)OCC(=O)NC(C)C` gave OX1R FRET antag 8.
`CN(C)S(=O)(=O)c1ccc2c(c1)nc1n2CCC1` gave OX1R FRET antag 16.

Filtered by structure, the entries above containing fluorine
Screening O=C(Cc1ncc(C(F)(F)F)cc1Cl)NCc1ccco1 returned OX1R FRET antag -6.
Cc1c(C(=O)c2ccc(F)cc2F)c2ccccn2c1CCC#N was read as OX1R FRET antag 24.
Screening O=C(Nc1ccc2oc(-c3ccccc3F)nc2c1)c1ncn[nH]1 returned OX1R FRET antag 16.
`O=C(Cn1c2ccc(F)cc2c2nc3n(c(=O)c21)CCS3)NCC1CCCO1` (stereo not drawn) gave OX1R FRET antag 25.
For Cc1c(NC(=O)NC(=O)c2ccc(F)cc2)c(=O)n(-c2ccccc2)n1C the results were OX1R FRET antag 30.
Screening O=C(COC(=O)CC(c1ccccc1)c1ccccc1)Nc1cccc(F)c1 returned OX1R FRET antag 28.
`O=C(c1ccc(S(=O)(=O)Nc2ccccc2F)cc1)N1CCCCCC1` gave OX1R FRET antag 8.
`Cc1ccc(NC(=O)C2CC(c3ccc(F)cc3)=NO2)cc1` (stereo not drawn) gave OX1R FRET antag 7.
CC(C)C(NC(=O)c1ccc(F)cc1)C(=O)N1CCOCC1 (stereo not drawn) was read as OX1R FRET antag 8.
For O=C(c1cc(COc2cccc(C(F)(F)F)c2)on1)N1CCSCC1 the results were OX1R FRET antag 10.
CSc1nc2ccc(NC(=O)c3c(F)cccc3F)cc2s1 was read as OX1R FRET antag 23.
`Cc1cc(Nc2ccc(C)c(F)c2)n2ncnc2n1` gave OX1R FRET antag 4.
For O=C(N/N=C/c1c(Cl)cccc1Cl)c1ccc(F)cc1 the results were OX1R FRET antag 4.
